UUG fidelity: alters start codon recognition fidelity in yeast | 350,000 compounds, 0.13% hits | activity score, % at 18.7 µM | S. cerevisiae UUG-firefly luciferase reporter, luminescence/redox ratio;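 active means replicate mean at a twofold rise or more, about +100% in these data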;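 further: firefly luciferase made from a UUG start codon reports start codon fidelity; reporter light over untreated wells divided by growth signal over untreated wells; some hits fall short of that in this replicate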
Rce1 inhib: blocks yeast Ras-converting enzyme; calls only; yeast membranes, quenched prenylated peptide cleavage fluorescence; 290,000 compounds, 0.27% hits;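 active means fall in fluorescence gain of 50% or more versus controls, with final raw signal at or below 3038400; inconclusive means same 50% fall but final raw signal above 3038400; inactive means fall in fluorescence gain under 50%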;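 further: plate controls were neutral control wells for no effect and wells lacking membranes for full effect; tested at 10 µM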
Target sequence (Q03530 whole entry, looked up): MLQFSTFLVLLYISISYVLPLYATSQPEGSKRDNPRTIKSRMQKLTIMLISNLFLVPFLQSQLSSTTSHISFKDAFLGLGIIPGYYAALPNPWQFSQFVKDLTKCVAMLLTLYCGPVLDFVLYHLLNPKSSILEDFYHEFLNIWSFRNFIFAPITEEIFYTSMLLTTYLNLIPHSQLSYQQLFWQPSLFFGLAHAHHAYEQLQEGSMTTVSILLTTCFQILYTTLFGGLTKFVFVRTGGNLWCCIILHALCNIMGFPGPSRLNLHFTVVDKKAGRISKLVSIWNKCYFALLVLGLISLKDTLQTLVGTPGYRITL
PABP FP inh: blocks human PABP binding to poly(A) RNA. 290,000 compounds, 1% hits. inhibition, % at 35 µM. fluorescence polarization. P11940;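 active means 50% or more with normal probe brightness, or confirmed in later tests; inconclusive means above 50% with abnormal brightness, or retests that disagree; inactive means below 50% or failed in later tests; about a fifth of its hits are not listed in these tables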;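 further: calls also rest on retests at 20 µM and on dose response follow-up; controls were probe without protein and protein plus probe with vehicle; some compounds called inactive have numbers as strong as hits; many hits fall short of the cut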
Target sequence (P11940 whole entry, looked up): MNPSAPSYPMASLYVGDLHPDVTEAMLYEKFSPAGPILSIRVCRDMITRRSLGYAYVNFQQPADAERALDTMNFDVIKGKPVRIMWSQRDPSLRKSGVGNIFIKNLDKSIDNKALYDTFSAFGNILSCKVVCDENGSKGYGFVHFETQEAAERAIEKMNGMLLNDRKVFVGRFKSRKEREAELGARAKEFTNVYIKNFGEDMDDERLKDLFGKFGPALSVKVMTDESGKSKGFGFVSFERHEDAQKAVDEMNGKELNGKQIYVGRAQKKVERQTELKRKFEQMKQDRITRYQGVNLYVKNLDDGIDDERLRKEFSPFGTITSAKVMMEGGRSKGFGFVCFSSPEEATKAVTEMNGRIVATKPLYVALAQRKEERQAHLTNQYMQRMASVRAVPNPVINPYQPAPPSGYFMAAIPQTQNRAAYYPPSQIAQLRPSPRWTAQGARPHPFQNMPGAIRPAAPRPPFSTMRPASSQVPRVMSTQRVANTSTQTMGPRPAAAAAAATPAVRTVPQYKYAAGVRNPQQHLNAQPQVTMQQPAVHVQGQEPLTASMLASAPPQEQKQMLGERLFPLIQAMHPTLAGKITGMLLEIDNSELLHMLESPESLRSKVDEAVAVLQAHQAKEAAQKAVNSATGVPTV
eIF4H inh: inhibitors of RNA binding by human eIF4H | Q15056 | eIF4H fluorescence polarization binding assay | inhibition, % at 35 µM | 290,000 compounds, 0.94% hits | AID 2012;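 active means 50% or more with normal probe brightness, or confirmed in later tests; inconclusive means above 50% with abnormal brightness, or retests that disagree; inactive means below 50% or failed in later tests; about a fifth of its hits are not listed in these tables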;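 further: calls also rest on retests at 20 µM and on dose response follow-up; 0% = protein and probe with vehicle and 100% = probe without protein; strong numbers were not always called active; many hits fall short of the cut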
CSC inhib: cancer stem cell inhibition; cancer stem cell-like cells viability, luminescence; inhibition, % at 7.5 µM; 300,000 compounds, 1.1% hits; AID 2717;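 active means mean at 75% or more and at least half the replicates too; inconclusive means mean and replicates disagree; tested in HMLE shEcad cells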;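 further: 0% = median of negative and 100% = median of positive control wells; the first replicate is given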
Env fusion inh: inhibitors of HIV Env-mediated cell fusion; HeLa-JRFL Env/CEM21 cell fusion, luciferase; 360,000 compounds, 1.1% hits; inhibition, % at 12.3 µM; AID 651610;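 active means mean replicate inhibition score of at least 50 and every replicate individually at or above 50; inconclusive means only one of the two criteria met; inactive means mean below 50 and not all replicates reaching 50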;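 further: 0% = plate neutral controls and 100% = maraviroc near 300 nM; one replicate is shown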
MT1-MMP act inh: MT1-MMP (human) activation inhibition. AID 651647. HT1080 RFP-PRO-GFP cells, GFP/RFP ratio fluorescence, overnight; percent of plate control window, DMSO zero. GFP/RFP ratio change, % at 20 µM. 360,000 compounds, 0.061% hits. P50281;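 active means GFP/RFP ratio change of at least 30% with cell ATP level not reduced by more than half and red fluorescence within 50% of control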; further: strong numbers were not always called active
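Assay system: HT1080 cells carrying an RFP-PRO-GFP reporter | Dosing: Single dose of 20 µM compound, 1% DMSO final | Incubation: Cells overnight before dosing, compound overnight, 37 °C, 5% CO2 | Evaluation: GFP/RFP fluorescence ratio | Control set: DMSO and RFP-L50D-GFP cell wells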
MT1-MMP act inh RFP: further read-out of MT1-MMP act inh, marked with its call; RFP signal change, %; measured here: RFP expression control read;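 0 = vehicle wells; hits needed this value within 50% of zero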
Active calls of the source: *; i = inactive; ? = inconclusive; nt = no result given.

SMILES | UUG fidelity | Rce1 inhib | PABP FP inh | eIF4H inh | CSC inhib | Env fusion inh | MT1-MMP act inh | MT1-MMP act inh RFP
C/C(=N\NC(=O)c1cc(C)nc2ccc(C)cc12)c1ccncc1 | -18 | i | -15 | 1 | -9 | -10 | -5 | -3
O=C(Nc1ccc(F)c(Cl)c1)C1CC(=O)N(Cc2ccccc2)C1 (stereo unspecified) | 1 | i | 2 | -8 | -7 | 0 | 1 | 1
CC(=O)c1ccc(NC(=O)C[n+]2ccccc2)cc1 | -9 | i | 0 | 0 | -11 | -3 | 2 | 4
CN(C1CCCCC1)S(=O)(=O)Cc1ccccc1 | nt | i | 2 | 4 | -2 | nt | 0 | 0
CCN(CC)S(=O)(=O)c1cc(C(=O)OCC(=O)c2ccc3c(c2)NC(=O)CO3)ccc1Cl | -18 | i | -9 | 3 | 6 | 34 | 2 | -12
Cc1ccc2c(C)c(C(=O)Nc3ccc(S(=O)(=O)Nc4onc(C)c4C)cc3)oc2c1 | 6 | i | 0 | -11 | -2 | -5 | -1 | -3
Cn1c(=O)n(CCCOc2ccc(Br)cc2)c2ccccc21 | 5 | i | 4 | 0 | 4 | nt | -3 | -6
Cc1noc(C)c1CSCC(=O)Nc1ccccc1N1CCCCC1 | -20 | i | nt | nt | -13 | nt | -3 | -6
CCc1ccc(C(=O)CN2C(=O)NC3(CCOc4ccccc43)C2=O)s1 (stereo unspecified) | -2 | nt | nt | nt | -14 | 11 | -1 | -3
CCOC(=O)CSc1cc(C)nc(NC(C)=O)n1 | -3 | i | 45 | -4 | -4 | -59 | -2 | 3
O=C1OC(Cc2ccccn2)C(O)=C1C1=NCCCN1 (stereo unspecified) | 2 | i | -5 | -5 | -7 | -22 | -2 | 2
COCCn1c(SC(C)C(=O)NC2CCCCC2C)nc2ccccc2c1=O (stereo unspecified) | -15 | i | nt | nt | 19 | 75* | 2 | -1
Cc1ccc(S(=O)(=O)Nc2ccc(Cl)cc2C(=O)c2ccccc2)cc1 | nt | i | -8 | -14 | 20 | 26 | 3 | 0
O=C(/C(Cl)=C/Nc1ccc(Br)cn1)C(F)(F)F | nt | i | 15 | -2 | -1 | -26 | 5 | -2
O=C(CCN1CCOCC1)NCC1COc2ccccc2O1 (stereo unspecified) | -4 | nt | 4 | 1 | nt | -86 | 5 | -1
CC1=C([N+](=O)[O-])C(c2ccc(O)c(O)c2)NC(=O)N1 (stereo unspecified) | -24 | i | 3 | -14 | -8 | 0 | -2 | 0
CCOC(=O)CC(=O)CSc1n[nH]c(=O)[nH]c1=O | nt | i | 3 | -13 | -3 | -3 | 3 | 10
Cc1nc(OCc2c(C)noc2C)c2ccccc2n1 | nt | i | 23 | 2 | nt | -4 | 4 | 7
CC(=O)c1cccc(NC(=O)Nc2ccccc2)c1 | -6 | i | -9 | -9 | 1 | 3 | -2 | -4
CN(C)CCNC(=S)NC1CCCCC1 | nt | i | -2 | -8 | -4 | -5 | -1 | 1
CCCC(=O)Nc1c(C)nn(C(=O)CCC)c1C | -15 | i | 2 | 6 | -6 | nt | 1 | 4
C=CCSc1nnc(NC(=O)Cn2cnc3c2c(=O)n(C)c(=O)n3C)s1 | nt | i | 9 | -8 | -5 | -17 | 7 | 4
Cc1ccc(C(=O)NCCNc2nc3cc(C)c(C)cc3cc2C)cc1 | -3 | i | -16 | -8 | 48 | -11 | -2 | -1
CN(Cc1c(C(=O)N/N=C/c2cccc(F)c2)nnn1-c1nonc1N)C1CCCCC1 | -13 | i | -4 | -20 | 0 | 6 | 7 | 3
O=C(O)c1cccc(S(=O)(=O)Nc2cccc(S(=O)(=O)Nc3ccc(Br)cc3)c2)c1 | -5 | nt | nt | nt | nt | -11 | 0 | 1
Further entries:
SMILES | UUG fidelity | Rce1 inhib | PABP FP inh | eIF4H inh | CSC inhib | Env fusion inh | MT1-MMP act inh | MT1-MMP act inh RFP
CCCN(CCC)Cc1c(C(=O)N/N=C/c2ccc(C)o2)nnn1-c1nonc1N | -11 | i | -2 | 38 | -12 | 10 | 1 | 5
O=C(COC(=O)c1ccc([N+](=O)[O-])s1)NC(c1ccccc1)c1ccccc1 | nt | i | -8 | 5 | -4 | 7 | 3 | 1
O=C(Nc1ccc(Nc2ccccc2)cc1)C1CC1 | 2 | i | 0 | -2 | -2 | -10 | 0 | -4
COC(=O)C1C(=O)C2=C(CC1C)NC(=O)CC2c1ccc(O)c(OC)c1 (stereo unspecified) | -11 | i | -10 | -13 | -8 | nt | 0 | 1
COc1cccc(CSCC(=O)NCCc2ccccc2)c1OC | -18 | i | -6 | 2 | -18 | 29 | -5 | -2
Cc1cc2nc(SCCN3CCOCC3)[nH]c2cc1C | 3 | i | 16 | -7 | 0 | nt | -3 | -3
CN(C)S(=O)(=O)Oc1ccccc1C(=O)Nc1ccccc1Cl | -7 | nt | -6 | 1 | -3 | 28 | 4 | 6
CN1CCCC(OC(=O)COc2ccccc2)C1 (stereo unspecified) | -7 | i | 1 | -3 | 12 | nt | 0 | 5
COc1ccc(/C=N\NC(=O)COc2ccccc2)c(C(=O)O)c1OC | 5 | nt | -3 | -2 | -4 | 6 | 0 | 3
CCn1ncc(Cl)c1C(=O)NC(C)c1ccccc1 (stereo unspecified) | -14 | i | 0 | -2 | -14 | nt | -7 | 0
O=C(/C=C/c1ccc(Cl)cc1)NC(=S)Nc1ccccc1C(=O)O | nt | i | 6 | 22 | 20 | -51 | 5 | 6
COc1ccc2nc(N/C(N)=N/C(=S)Nc3cccc(C)c3)nc(C)c2c1 | -22 | i | -2 | -4 | 29 | nt | -4 | -6
Cc1ccc(C(OCC(O)CNC(C)c2ccccc2)c2ccccc2)cc1 (stereo unspecified) | nt | i | 41 | -11 | 14 | 47 | 0 | -3
O=C(/C=C/c1cccc([N+](=O)[O-])c1)OCC(=O)N1CCN(C(=O)c2ccco2)CC1 | -9 | nt | nt | nt | -4 | 1 | -2 | 4
c1ccc2c(c1)Oc1ccccc1S2 | -5 | nt | nt | nt | -5 | nt | -4 | 4
CNC(=O)C(=O)Nc1c(O)c2ccccc2[nH]c1=O | -11 | i | 1 | 0 | -22 | -57 | 2 | 4
CC1(C)CC(N2CCC(=O)NC2=S)CC(C)(C)N1 | -16 | i | nt | nt | 2 | 9 | -2 | 4
O=C(NCC(c1cccs1)N1CCOCC1)c1cc(=O)[nH]c2ccccc12 (stereo unspecified) | -24 | i | nt | nt | 3 | nt | -5 | 3
Cc1ccccc1NC(=O)CSCCN1C(=O)c2ccccc2C1=O | nt | i | 13 | -8 | nt | -1 | 3 | 6
CCOC(=O)CSc1ccc2nnc(-c3cccs3)n2n1 | -12 | i | -3 | 2 | 15 | -8 | 0 | 2
O=C1C2C3C=CC(C3)C2C(=O)N1c1n[nH]c(CCc2ccccc2)n1 (stereo unspecified) | -10 | i | 1 | -7 | -27 | nt | -2 | 1
CC1(C)C2CC=C(/C=N/NC(=O)c3ccccc3Br)C1C2 (stereo unspecified) | nt | i | 7 | 6 | -16 | 14 | 0 | 0
Cc1cc(C)c2c(c1)SC1=NC(c3ccccc3)(C(F)(F)F)NC(=O)N12 (stereo unspecified) | -13 | i | 6 | -6 | 9 | -153 | nt | nt
COc1ccccc1N(C(=O)CNC(=O)c1ccco1)C(C(=O)NCC1CCCO1)c1ccccc1 (stereo unspecified) | -10 | i | -2 | -13 | -6 | 4 | -3 | -1
O=C(NC(NNc1ccc([N+](=O)[O-])cc1)(C(F)(F)F)C(F)(F)F)c1ccc(F)cc1 | nt | i | -4 | -2 | 11 | -2 | -5 | -16
Next section:
SMILES | UUG fidelity | Rce1 inhib | PABP FP inh | eIF4H inh | CSC inhib | Env fusion inh | MT1-MMP act inh | MT1-MMP act inh RFP
Cc1ccc(N2CC(=O)N(NC(=O)Nc3ccc(Cl)c(Cl)c3)CC2=O)cc1 | nt | i | -1 | -7 | -5 | -15 | 2 | -2
Cc1ccc(C(=O)N2CCN(c3ccc(F)cc3)CC2)cc1S(=O)(=O)N1CCCCC1 | -3 | i | 13 | 0 | -7 | 48 | -3 | -27
CCCCN(CC)S(=O)(=O)c1ccc(C(=O)Nc2nnc(CSC)o2)cc1 | -26 | i | -2 | 7 | 4 | 7 | -4 | 0
CCOC(=O)c1ccc(NC(=S)NCCCn2ccnc2)cc1 | -20 | i | 0 | 4 | -4 | 0 | 6 | 3
CC(C)CSC1=NSC2=NC(=O)/C(=C\c3coc4ccccc4c3=O)C(=N)N12 | nt | i | -7 | ? | 34 | -33 | -93 | 3
CC(=O)n1cc([C@H]2C=C(C(=O)O)O[C@@H](OCCCCO)C2)c2ccccc21 | -9 | i | 7 | 1 | -5 | -49 | 1 | 5
O=C(O)c1ccc2c(c1)C(=O)N(c1ccccc1-c1ccccc1)C2=O | -3 | i | 1 | 4 | -3 | -7 | 5 | 3
CC(C)=CC(=O)Nc1ccc(S(=O)(=O)Nc2onc(C)c2C)cc1 | -15 | i | 13 | -1 | 0 | -4 | -1 | -3
O=c1[nH][nH]cc1C=Nc1ccc(Cl)cc1Cl | nt | i | -2 | 4 | -4 | 9 | 0 | 3
COC(=O)c1sccc1NC(=O)c1cccc(F)c1 | 3 | i | nt | nt | nt | -4 | -1 | 2
CCCCn1c(SCC(=O)c2ccc3c(c2)OCCO3)nnc1-c1ccco1 | -21 | i | -5 | -8 | 1 | -114 | 2 | -3
COC(=O)c1ccc(N2CCN(CC(=O)c3ccc(-c4ccccc4)cc3)CC2)c([N+](=O)[O-])c1 | -28 | i | -5 | -1 | nt | nt | -6 | 0
O=C(CSc1ccc(-c2ccccn2)nn1)NC1CCCCC1 | nt | i | 2 | 2 | 3 | -7 | 8 | 3
NNC(=O)C1CCCN1S(=O)(=O)c1ccc(Cl)cc1 (stereo unspecified) | nt | i | 2 | -18 | nt | 4 | 1 | 3
CC(C)OCCCn1c(=S)[nH]c2cc3c(cc2c1=O)OCO3 | -18 | i | 2 | -2 | -17 | 1 | 1 | 1
COn1c(-c2ccccc2)c(C=O)c2ccccc21 | -5 | i | 0 | 4 | 11 | 5 | -7 | -6
COc1ccc(NC(=O)N(CCCN2CCOCC2)Cc2cccnc2)c(OC)c1 | -11 | i | nt | nt | 8 | -45 | 0 | 8
COCCn1c(Cc2ccccc2)nnc1SCC(=O)Nc1oc(C)c2c(C)n[nH]c(=O)c12 | -11 | i | nt | nt | 1 | 4 | 0 | 6
CCOc1ccccc1NC(=O)c1cc(S(=O)(=O)NCc2ccco2)ccc1F | -15 | i | nt | nt | -7 | 0 | 1 | -3
Cc1ccc(CNC(=O)c2ccc([N+](=O)[O-])o2)cc1 | -27 | i | -7 | -1 | -6 | 2 | 13 | 2
CC(C)(C)OC(=O)C[C@H]1C/C=C\C[C@@H](CC(=O)NCCO)C(=O)N2CCC[C@H]2COC1=O | -8 | nt | nt | nt | nt | 8 | 11 | 5
O=C(CC12CC3CC(CC(C3)C1)C2)N/N=C/c1ccncc1 | nt | i | -4 | 0 | -6 | nt | -1 | 2
Cc1ccc(S(=O)(=O)CNC(=O)c2ccccc2)cc1 | -12 | nt | -14 | -6 | -8 | nt | -7 | -1
Cc1cc2cc3n(c2nn1)N=C(Cl)CC3 | -34 | nt | nt | nt | nt | 7 | 16 | 6

Of the compounds above, three contain a CF3 group:
SMILES | UUG fidelity | Rce1 inhib | PABP FP inh | eIF4H inh | CSC inhib | Env fusion inh | MT1-MMP act inh | MT1-MMP act inh RFP
O=C(/C(Cl)=C/Nc1ccc(Br)cn1)C(F)(F)F | nt | i | 15 | -2 | -1 | -26 | 5 | -2
Cc1cc(C)c2c(c1)SC1=NC(c3ccccc3)(C(F)(F)F)NC(=O)N12 (stereo unspecified) | -13 | i | 6 | -6 | 9 | -153 | nt | nt
O=C(NC(NNc1ccc([N+](=O)[O-])cc1)(C(F)(F)F)C(F)(F)F)c1ccc(F)cc1 | nt | i | -4 | -2 | 11 | -2 | -5 | -16

Screening results (PubChem BioAssay)
